YjeE inh: inhibitors of E. coli YjeE (TsaE); P0AF67; Potency, µM; 0.05% of 71,000 active; purified YjeE, fluorescence polarisation of a bound ADP probe; active = well fitted falling curve; inconclusive = weaker or top-dose-only fall, or a rising curve; inactive = flat or poorly fitted curve;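 note: top concentration of the series not given in the record; excess ADP was the control for the full effect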
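Fluorescence polarization of a BODIPY Texas Red–ADP probe (2 uM) bound to purified YjeE (10 uM) was read after 15 min room-temperature incubation with compounds. Loss of polarization marks inhibitors; ADP serves as titrated control.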
PK Bst: alters activity of Bacillus stearothermophilus pyruvate kinase | partly purified Bacillus stearothermophilus pyruvate kinase, luminescence ATP production; ribose 5-phosphate activator present at AC10 | Potency, µM | AID 361 | 1.2% of 51,000 active; in the data active means potency below about 11 µM; inconclusive means mostly about 12 µM to 25 µM; inactive means weaker than that;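 the screen sought inhibitors and activators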;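 note: potency is the fitted concentration of half-maximal effect; scaled between full activation by ribose 5 phosphate and full inhibition by luteolin; about four in five hits inhibit and the cells do not say which; series up to 57 µM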
* marks the source's active call; other numbers are inactive results; i = inactive; u = inconclusive; x = not tested or not shown. Some of the compounds tested (hit frequency here may not be typical).

YjeE inh	PK Bst	Compound
i	x	O=C1CCCc2sc3c(c2N1)CCCCC3
i	>57	Cc1ccc(C)c(CSc2nnc(-c3cccnc3)n2N)c1
i	x	CCC[C@@H]1C[C@@]1(CCC)[C@@H](NC(=O)Oc1ccccc1)c1ccc(C(=O)OC)cc1
i	>57	CC1CN(CCc2ccccc2)c2nc3c(c(=O)[nH]c(=O)n3C)n2C1 (centres undefined)
i	x	CC(C)(C)c1cc2c(O)c(c1)Cc1cc(C(C)(C)C)cc(c1O)Cc1cc(C(C)(C)C)cc(c1O)Cc1cc(C(C)(C)C)cc(c1O)Cc1cc(C(C)(C)C)cc(c1O)Cc1cc(C(C)(C)C)cc(c1O)Cc1cc(C(C)(C)C)cc(c1O)Cc1cc(C(C)(C)C)cc(c1O)C2
i	>57	Cc1oc(-c2cccc(Cl)c2)nc1CN1CCC(C(=O)NCc2ccco2)CC1
i	>57	O=C(CCN1C(=O)C2CC=C(Cl)CC2C1=O)NC1CCCCC1 (centres undefined)
i	>57	CCOC(=O)CC(=O)CSc1nc2sc(C)cc2c(=O)n1Cc1ccco1
i	>57	COc1cc2c(cc1OC)CN(CC(=O)Nc1cccc(C)c1)CC2
i	>57	O=C(NCCCNCCCNC(=O)c1ccccn1)c1ccccn1
i	>57	COc1ccccc1CNC(=O)CN(c1ccc(C)cc1)S(=O)(=O)c1c(C)nn(C)c1C
i	>57	CCOc1cc(C)c(C(C)C)cc1S(=O)(=O)N1CCN(C)CC1
i	>57	CCn1c(=O)n(CC(=O)Nc2cccc(OC)c2)c(=O)c2ccccc21
i	x	CCc1nnc(NC(=O)CSc2nc3c(c(=O)n2C)SC(C)C3)s1 (centres undefined)
i	u	COc1ccc(OC)c(Nc2nc(-c3ccc(O)c(O)c3)cs2)c1
i	x	COCCCNC(=O)COc1cc(C)c(Cl)c(C)c1
i	x	COCC(=O)N1CCC2(CCN(Cc3ccccc3OC)CC2)CC1
i	>57	CCC(C(=O)NCc1ccco1)n1nc(-c2ccc(OC)cc2)ccc1=O (centres undefined)
i	u	CC(=O)c1cccc(NC(=O)CN2C(=O)COc3ccc(Cl)cc32)c1
i	>57	O=C(CSc1nnnn1C1CCCCC1)Nc1ccc2c(c1)OCO2
i	>57	Cc1ccc(C)n1-c1ccc(C(=O)NCC2CCCO2)cc1 (centres undefined)
i	>57	Cc1ccc(S(=O)(=O)N2CCOCC2)cc1C(=O)NC1CCCCC1
x	>25.6	CCOc1ccc(C2/C(=C(/O)c3ccc(OC)cc3)C(=O)C(=O)N2c2cc(C)on2)cc1OC (centres undefined)
i	>57	Fc1ccc(C2CC(c3ccccc3)n3ncnc3N2)cc1 (centres undefined)
i	>57	Clc1ccc(OCc2nnc(SCc3nc4ccccc4[nH]3)n2Cc2ccco2)cc1
i	x	CC(C)(C)c1ccc(-c2cc(N)n[nH]2)cc1
i	>57	C1CSC2(N1)C1CC3CC(C1)CC2C3 (centres undefined)
i	>57	Cc1ccc(C)c(N2CCN(C(=O)c3cc4sccc4n3C)CC2)c1
i	>57	Cc1ccc(-n2c(CSc3nc(C)cc(C)n3)nnc2SCC(=O)Nc2nccs2)cc1
i	>57	O=C(COC(=O)CCc1ccc(S(=O)(=O)N2CCOCC2)cc1)Nc1ccc(Cl)cn1
x	>11.4	CCn1cc(C(=O)NCc2ccco2)c(=O)c2cc(F)c(N3CCN(C(=O)c4ccco4)CC3)cc21
i	>57	CN1CCN(C(=O)CCn2nc(-c3ccccc3)c3ccccc3c2=O)CC1
i	>57	COC(=O)c1sc(NC(=O)CSc2nc3cccnc3n2C2CCCCC2)nc1C
x	>25.6	O=c1c2ccccc2[nH]c(=S)n1CCN1CCC(=C(c2ccc(F)cc2)c2ccc(F)cc2)CC1
i	>57	Cn1c(=O)c2c(O)cc(=O)n(-c3ccccc3)c2n(C)c1=O
i	>57	Cc1cc2ncn(C(=O)c3ccc4c(c3)OCO4)c2cc1C
i	>57	CC(C)(C)C1CCC2(CC1)C(C#N)=C(SCC(=O)NC1CCCCC1)NC(=O)C2C#N (centres undefined)
i	x	CN(C)S(=O)(=O)c1nc(Cl)c2[nH]cnc2n1
i	>57	Cc1nc(NC(=O)C23CCC(C)(C(=O)O2)C3(C)C)sc1C (centres undefined)
i	x	Cn1c(SCC(=O)Nc2ccc(F)cc2F)nnc1-c1cccnc1
i	>57	Cc1ccc(C)c(S(=O)(=O)N2CCN(CC(=O)Nc3cc(C)on3)CC2)c1
i	>57	COc1cccc(-c2cc(C(F)(F)F)nc(N3CCC(C)CC3)n2)c1
i	x	CN(C)S(=O)(=O)c1ccc(S(=O)(=O)N2CCN(CCC#N)CC2)cc1
x	i	CCOC(=O)N1CCN(/C=C(\C#N)c2nc3ccccc3s2)CC1
i	>57	COc1ccc(N2CCCn3c2nc2c3c(=O)n(CCN3CCOCC3)c(=O)n2C)cc1
i	x	CCc1nc2sc3ccccc3c(=O)c2c(=O)n1Cc1ccco1
i	>57	O=C(NCCN1CCOCC1)c1ccccc1Oc1ccccc1
i	>57	CC(C)(C)n1ncc2c(=O)n(CC(=O)NCc3ccco3)cnc21
i	>57	COc1cc(NC(=O)C2CCCO2)c(OC)cc1NC(=O)c1ccccc1 (centres undefined)
i	>57	CCOC(=O)c1cc2c(=O)n3cccc(C)c3nc2n(Cc2ccco2)c1=NC(=O)c1cccnc1
i	>57	CCc1cccc(NS(=O)(=O)c2ccc3c(c2)oc(=O)n3C)c1
i	>57	CCOCCc1nnc(NC(=O)CN2C(=O)c3ccccc3C2=O)s1
i	>57	O=S(=O)(NCC1CCCO1)c1ccc(Br)s1 (centres undefined)
i	>57	CCC(=O)c1ccc(OCC(=O)O)cc1
i	>57	CN(C(=O)c1ccno1)c1nnc(-c2cnccn2)s1
i	>57	Cc1ccc2c(CN3CCN(S(=O)(=O)c4ccc5c(c4)OCCO5)CC3)cc(=O)oc2c1C
i	x	O=C(CCCc1ccccc1)NCc1cccnc1
x	>11.4	Cc1cc(=O)oc(C)c1C(=O)Nc1ccc2nsnc2c1
i	x	Clc1ccccc1-c1cc(NCc2ccccc2)ncn1
i	>57	COc1ccc(C(c2nnnn2CC2CCCO2)N2CCN(c3ccccc3)CC2)cc1 (centres undefined)

Additional records:
YjeE inh	PK Bst	Compound
i	u	Cc1cc(C(=O)Nc2sc3c(c2C#N)CCCC3)no1
i	>57	CC(C)(C)NC(=O)C(c1ccco1)N(C(=O)Cn1nnc(-c2ccc(F)cc2)n1)c1cccc(F)c1 (centres undefined)
i	>57	O=c1[nH]c(N2CCCCC2)nc2c1CCCC2
i	x	O=C(OC1CCCCC1)c1ccc(NC(=O)c2ccco2)cc1
i	>57	Cc1nc2nc(COc3ccccc3)[nH]n2c(=O)c1Cl
i	11.3*	O=C(Cc1coc2ccc3ccccc3c12)N1CCN(c2ncccn2)CC1
i	>57	COCc1cc(C)n(CC(=O)Nc2ccccc2OC)c(=O)c1C#N
i	x	CCN(CC)C(=O)COc1ccc(-c2ccccc2)cc1
i	>57	CCc1nc2ccccc2n1Cc1cc(=O)n2cc(C)ccc2n1
i	x	O=C(c1ccco1)N1CCN=C1SCc1cccc(F)c1
i	>57	COC(=O)c1cc(-c2cccc(OC)c2)n[nH]1
i	x	CC(C)NC(=O)N1CC[C@@]2(CCCN(C(=O)c3ccco3)C2)C1
i	x	O=C(c1ccncc1)N1CCC2(CC1)CCN(c1ccncc1)CC2
i	x	CCC/C=C(\CCC)C(NS(=O)(=O)c1cccs1)c1ccc(C(=O)OC)cc1 (centres undefined)
i	>57	Cc1cccc2cc3c(NC(=O)c4ccccn4)nn(C)c3nc12
i	>57	CCn1c(SCC(=O)NCCOC)nc2sc(C)c(C)c2c1=O
i	>57	O=C(NCCc1ccccc1)c1cc(-c2ccc3c(c2)OCO3)on1
i	>57	O=C(CCc1ccccc1)Nc1ncc2c(n1)CCCC2=O
i	>57	O=C(Nc1cc(C(F)(F)F)ccc1Cl)c1cc(C2CC2)on1
i	>57	CCCC(=O)Nc1nnc(-c2cccc(OCC)c2)s1

Quoted from the listing (15 entries):
YjeE inh	PK Bst	Compound
i	11.3*	O=C(Cc1coc2ccc3ccccc3c12)N1CCN(c2ncccn2)CC1
i	>57	COCc1cc(C)n(CC(=O)Nc2ccccc2OC)c(=O)c1C#N
i	x	CCN(CC)C(=O)COc1ccc(-c2ccccc2)cc1
i	>57	CCc1nc2ccccc2n1Cc1cc(=O)n2cc(C)ccc2n1
i	x	O=C(c1ccco1)N1CCN=C1SCc1cccc(F)c1
i	>57	COC(=O)c1cc(-c2cccc(OC)c2)n[nH]1
i	x	CC(C)NC(=O)N1CC[C@@]2(CCCN(C(=O)c3ccco3)C2)C1
i	x	O=C(c1ccncc1)N1CCC2(CC1)CCN(c1ccncc1)CC2
i	x	CCC/C=C(\CCC)C(NS(=O)(=O)c1cccs1)c1ccc(C(=O)OC)cc1 (centres undefined)
i	>57	Cc1cccc2cc3c(NC(=O)c4ccccn4)nn(C)c3nc12
i	>57	CCn1c(SCC(=O)NCCOC)nc2sc(C)c(C)c2c1=O
i	>57	O=C(NCCc1ccccc1)c1cc(-c2ccc3c(c2)OCO3)on1
i	>57	O=C(CCc1ccccc1)Nc1ncc2c(n1)CCCC2=O
i	>57	O=C(Nc1cc(C(F)(F)F)ccc1Cl)c1cc(C2CC2)on1
i	>57	CCCC(=O)Nc1nnc(-c2cccc(OCC)c2)s1

Continued.
YjeE inh	PK Bst	Compound
i	>57	CN(C)S(=O)(=O)c1ccccc1C#N
i	>57	Cc1ccc2nc(SCc3nnc(-c4cccs4)o3)[nH]c2c1
i	>57	COC1(OC)N=C(N)C2(C#N)C(c3ccc4c(c3)OCO4)C12C#N (centres undefined)
i	x	CCCCOc1ccc(NC(=O)c2cnc(C)cn2)cc1
i	>57	CCN1C(=O)c2cccc3c(NC(=O)C4CCCCC4)ccc1c23
i	>57	CCCn1c(=O)c2ccccc2n2c(SCC(=O)Nc3cc(C)on3)nnc12
i	x	COc1ccc2c(c1)c1c(C)c3cnccc3c(C)c1n2CCCN
i	>57	O=C(O)Cn1c(-c2ccccc2)nc2ccccc21
i	>57	CCNC(=O)COC(=O)COc1ccc(Cl)cc1C
i	>11.4	O=[N+]([O-])c1cccc2cn[nH]c12
i	>57	CCOC(=O)c1c(C)oc2ccc(OCC(N)=O)cc12
i	x	CC(=O)Nc1ccc(S(=O)(=O)Nc2ncccn2)cc1
i	>57	Cc1[nH]c(=O)[nH]c(=O)c1NS(=O)(=O)c1ccc2c(c1)CCCC2
i	x	COc1ccc2[nH]c3c(c2c1)CN(C)CC3
x	>25.6	CCc1ccccc1NC(=O)CSC1=C(C#N)C(c2ccc(O)c(OC)c2)C2=C(CCCC2=O)N1 (centres undefined)
i	x	COCCN1CC(O)=C(c2nc3ccccc3c(=O)[nH]2)C1=N
i	x	CCN(CC)C(=O)C1CCCN(C/C=C/c2ccccc2)C1 (centres undefined)
i	>57	COc1cc(OC)c(C2N(c3ccccn3)C(=O)C3CCCN32)cc1OC (centres undefined)
i	>57	O=C(NCc1nc(-c2ccccc2)no1)c1cccs1
i	>57	Cc1cccc(C(C)C)c1NC(=O)c1cccnc1
i	i	O=C1NCCCc2c1oc1cc(Br)c(O)c(Br)c21
i	>57	O=C(CSc1nnc(-c2cccs2)o1)N1CCOCC1
i	>57	COC(=O)c1ccccc1NC(=O)COC(=O)CSCC(=O)N1CCOCC1
i	>57	O=C(NCc1nc(-c2ccccc2)no1)c1ccc2c(c1)OCO2
i	>57	Cc1noc(C)c1S(=O)(=O)N1CCCC(C(=O)NCCc2ccc(Cl)cc2)C1 (centres undefined)
i	>57	Cc1cccc(C)c1OCc1nnc(SCC(=O)NCCc2ccccc2)o1
i	>57	COc1ccccc1NC(=O)CSc1nnc(CNC(=O)COc2ccc(Cl)cc2)o1
i	>57	CN1CCc2c(sc3c2c(=O)n(-c2ccccc2)c2nnc(SCc4ccc(Cl)cc4)n32)C1
i	>57	COc1ccc(Cc2nnc(SCC(=O)NCc3ccco3)o2)cc1
i	>57	CC(C)Cn1cc(C(=O)N2CCOCC2)c2c3ccccc3n(C)c2c1=O
u	x	COCCNc1cc(-c2ccccc2C)ncn1
x	>25.6	CCN(CC)c1nc(-c2cccc(OC)c2O)nc2ccccc12
i	>57	CCOC(=O)N1CCC(NC(=O)c2ccc3nc(N4CCOCC4)sc3c2)CC1
i	x	C/C(=C\CNc1ncnc2c1ncn2[C@@H]1O[C@@H](CO)[C@@H](O)[C@H]1O)CO
i	>57	CC(=O)c1ccc(-n2nnnc2SCC(=O)N2CCN(C(=O)c3ccco3)CC2)cc1
i	>57	Cc1ccc(OCC(=O)N2CCN(C(=O)c3cccs3)CC2)cc1
i	>57	CCCC(=O)N1CCN(S(=O)(=O)c2cc(Cl)ccc2OC)CC1
i	>57	COCc1[nH]nc2c1C(C1C=CCCC1)C(C#N)=C(N)O2 (centres undefined)
i	x	COC(=O)c1ccc(C(NC(=O)OCc2ccccc2)/C(=C/[C@@H](C)C(=O)NCc2ccncc2)c2cccnc2)cc1 (some centres undefined)
i	x	COc1cc(Cl)c(S(=O)(=O)n2cnc(C)c2)cc1Cl
i	>57	Cn1c(SCC(=O)Nc2ccc3c(c2)OCCO3)nnc1-c1ccco1
i	>57	CC1CCCCC1NC(=O)CSc1nncs1 (centres undefined)
i	>57	CCOC(=O)c1oc2ccc(Br)cc2c1CSc1nnc(C)s1

Shown field by field: 2 of the compounds above
COc1ccccc1NC(=O)CSc1nnc(CNC(=O)COc2ccc(Cl)cc2)o1
  YjeE inh = i
  PK Bst = >57

Cn1c(SCC(=O)Nc2ccc3c(c2)OCCO3)nnc1-c1ccco1
  YjeE inh = i
  PK Bst = >57
